From PubChem BioAssay
ClpP mod – qHTS Assay for Activators of ClpP. hit rate 1.9% among 340,000. AID 651965, 2013. purified B. subtilis ClpP, FRET peptide cleavage, 20 min. Potency, µM (highest dose often 57.5 µM), for the others: at the highest dose activity change, negative = active; active = well fitted falling curve with a large enough effect; inconclusive = small, poorly fitted or top-dose-only effect; inactive = no such curve, though single readings can be large or run the other way; further: the source files actives as falling curves though it sought activators and does not explain the sign; nearly all actives have a fitted effect of over 65% in size; many hits overshoot -100%
Target sequence (P80244 whole entry, looked up): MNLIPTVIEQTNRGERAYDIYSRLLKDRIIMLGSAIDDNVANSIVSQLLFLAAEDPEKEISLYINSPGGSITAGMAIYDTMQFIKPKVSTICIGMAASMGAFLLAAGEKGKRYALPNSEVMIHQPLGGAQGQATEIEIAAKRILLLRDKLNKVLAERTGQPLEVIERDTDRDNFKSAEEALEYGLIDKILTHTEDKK
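Purified B. subtilis ClpP, 10 microg/mL final in Tris/HCl pH8 with KCl, BSA, glycerol and Tween-20, cleaved an Abz/nitrotyrosine-quenched decapeptide. Fluorescence (ex 320, em 430) was read at 0 and 20 min at room temperature. Delta was normalized to 5.8 microM ADEP and DMSO/no-enzyme controls.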
The depositor's hits bear a star; ? = inconclusive. Potency means the concentration at half of the fitted maximal effect.

entry	mol	ClpP mod
1	O=C(NC1CCCC1)C(C1CC1)n1c(-c2cc3ccccc3[nH]2)nc2ccccc21 (centres undefined)	4.8%
2	CC1=C(c2ccc(C)c(C)c2)S(=O)(=O)N=C1N1CCC(C(=O)NCc2ccc(C)o2)CC1	-2.2%
3	COc1ccc(CCNC(=O)CCn2c(=O)c3ccccc3n(Cc3c(C)cc(C)cc3C)c2=O)cc1OC	0.6%
4	COc1ccc(-c2cc(C(=O)OCC(=O)c3ccc(C)cc3)c3cccc(Cl)c3n2)cc1	-20.7%
5	Cc1cccc2c1-c1sc(C(=O)N(C)c3cccc(C(F)(F)F)c3)cc1CO2	-7.7%
6	Cc1cc(C)cc(C(=O)C[n+]2cccc(Br)c2)c1	-1.0%
7	CCC(C)n1c(=N)c(C(=O)NC2CCCCC2)cc2c(=O)n3ccccc3nc21 (centres undefined)	3.8%
8	CCCCCc1ccc(-c2ccc(C(=O)Oc3ccc(C(=O)OC)cc3)cc2)nc1	-0.6%
9	Cc1ccc(Cn2c(=O)n(Cc3ccc(C(=O)NC4CCN(Cc5ccccc5)CC4)cc3)c(=O)c3ccccc32)cc1	-10.6%
10	COCCNc1nc2c(S(=O)(=O)c3ccccc3)nnn2c2ccc(Cl)cc12	-25.1%
11	CCCCn1cc2c(c1-c1ccc(Cl)cc1)c(=O)n(C)c(=O)n2C	?
12	CCOc1cc(C#N)c(NC(=O)c2ccc(OC)c(S(=O)(=O)N3CCN(c4ccccc4)CC3)c2)cc1OCC	-7.0%
13	COc1ccc(CNC(=O)c2cc(-c3ccc(OC)c(OC)c3)nc3n[nH]c(-c4ccc(C)cc4)c23)cc1	?
14	Cc1ccc(-c2nc(CCNC(=O)C(=O)Nc3ccc(C)cc3C)cs2)cc1	-2.0%
15	COC(=O)C1=C(c2ccccc2)c2ccccc2S(=O)(=O)N1CC(=O)Nc1ccccc1Cl	-4.7%
16	COCCCNC(=O)c1oc2c(c1C)-c1nn(Cc3ccc(Cl)cc3)cc1CC2	31.6µM*
17	COc1ccccc1CNC(=O)CCCn1c(=O)c2cccn2c2ccccc21	-3.3%
18	CC(=O)N1CCc2cc(S(=O)(=O)CCC(=O)Nc3ccc(C)cc3Br)ccc21	2.2%
19	COc1ccc(CCNC(=O)c2ccc3c(c2)nc2n3CCCCC2)cc1OC	-2.3%
20	Cc1c(CNC2CCC(C)CC2)c(C(=O)O)c(C)n1Cc1ccc(Cl)cc1 (centres undefined)	-0.2%
21	CCCc1cnc2c(c1SCc1ccc(C(F)(F)F)cc1)c(=O)n(C)c(=O)n2C	1.0%
22	CC1(c2nnnn2Cc2ccccc2)CCC(=O)N1Cc1ccco1 (centres undefined)	-0.4%
23	O=C1C=C(OCCF)CC(c2ccccc2C(F)(F)F)O1 (centres undefined)	3.0%
24	Cc1ccc(C(=O)c2cn(Cc3ccc(F)cc3)c3nc(C)ccc3c2=O)cc1	0.2%
25	Cc1ccc(NC(=O)Nc2sc3nc4n(c(=O)c3c2C)CCC(C)CC4)c(Cl)c1 (centres undefined)	?
26	COc1ccc(-c2sc(N)nc2-c2ccccc2)cc1	-0.1%
27	COc1cc(NC(=O)NCCn2nnc3cc(S(=O)(=O)N(C)C)ccc32)cc(OC)c1	-0.9%
28	O=C(CCn1c(=O)c2cccn2c2cccnc21)N1CCN(c2ccccc2)CC1	-4.9%
29	CCOc1cccc(C(=O)Nc2c(C(=O)c3ccc(OC)cc3)oc3ccccc23)c1	-14.0%
30	Cc1nnc(N2CCC(C(=O)N3CCCCC3)CC2)c2nn(-c3ccccc3)c(C)c12	-21.8%
31	Cc1cccc(-c2nn(-c3ccccc3)cc2CNCCO)c1	-29.4%
32	CCC(=O)N1CCc2cc(Br)cc(S(=O)(=O)N3CCCC(C(=O)NCc4cccc(OC)c4)C3)c21 (centres undefined)	-1.4%
33	CCCCC(=O)Nc1ccc(C(=O)OCc2cc(=O)n3ccsc3n2)cc1	-8.8%
34	Cc1ccc(-c2nc3nc(C)cc(N4CCN(c5cccc(C)c5C)CC4)n3n2)cc1	0.7%
35	COC(=O)[C@]12CCCCC=C1N(CCC1=CCCCC1)C(=O)[C@H](CC(=O)NCc1ccc(OC)c(OC)c1)C2	-2.1%
36	CCn1c(C(=O)N2CCC(C(=O)NCCCOC)CC2)cc2sccc21	-1.7%
37	COc1ccc(OC)c(NC(=O)C2=C(C)C(=O)OC23CCCCCC3)c1	0.7%
38	COc1ccc(CCNc2oc(/C=C/c3cc(OC)c(OC)c(OC)c3)nc2C#N)cc1OC	4.2%
39	Cc1ccc(Cc2nc3ccccc3nc2SCC(=O)NCCC(C)C)cc1	0.8%
40	COc1ccc(C2c3[nH]c4ccc(OC)cc4c3CCN2C(=O)Nc2ccccc2)cc1 (centres undefined)	-26.9%
41	CC(=O)N1CCc2cc(S(=O)(=O)N3CCN(c4ccc(C)cc4)C(C)C3)ccc21 (centres undefined)	-2.0%
42	O=C(C[N+]12CN3CN(CN(C3)C1)C2)c1ccc(Br)cc1	-3.0%
43	COc1ccc2c(c1)C=C/C2=C/c1ccc(N(C)C)cc1	-0.8%
44	CCc1ccc(S(=O)(=O)c2nnn3c2nc(NCc2cccc(OC)c2)c2cc(Cl)ccc23)cc1	4.2%
45	CCCCNc1ccc(-c2nc(-c3ccccn3)no2)cc1[N+](=O)[O-]	-0.1%
46	COc1ccc(-c2onc(C)c2C)cc1S(=O)(=O)NCCc1ccccc1	-5.5%
47	Cc1ccc(CN(C(=O)c2ccccc2[N+](=O)[O-])c2ccccn2)cc1	0.4%
48	CCN(C(=O)c1cc2cc3ccc(OC)cc3nc2o1)c1cccc(C)c1	-22.0%
49	CNC(=O)c1ccc(Nc2nnc(-c3ccc(C)c(S(=O)(=O)N(C)C)c3)c3ccccc23)cc1	-15.9%
50	CCCCCNC(=O)C(c1ccccc1F)n1c(=O)c(-c2ccco2)nc2ccccc21 (centres undefined)	?

Look-ups from the results shown:
ClpP mod with Cc1cccc2c1-c1sc(C(=O)N(C)c3cccc(C(F)(F)F)c3)cc1CO2 = -7.7%
ClpP mod with CCn1c(C(=O)N2CCC(C(=O)NCCCOC)CC2)cc2sccc21 = -1.7%
ClpP mod with COc1ccc(-c2sc(N)nc2-c2ccccc2)cc1 = -0.1%
ClpP mod with CCOc1cccc(C(=O)Nc2c(C(=O)c3ccc(OC)cc3)oc3ccccc23)c1 = -14.0%
ClpP mod with CCN(C(=O)c1cc2cc3ccc(OC)cc3nc2o1)c1cccc(C)c1 = -22.0%

Later entries:
entry	mol	ClpP mod
51	CCCCn1c(=NC(=O)c2c(-c3c(F)cccc3Cl)noc2C)c(C(=O)OCC)cc2c(=O)n3ccccc3nc21	-16.0%
52	C[N+]1(CC(=O)c2ccccc2)CCc2ccccc2C1 (centres undefined)	0.4%
53	CCc1ccccc1NC(=O)CSc1nnc(CC)c(CC)n1	1.2%
54	Cc1ccc(N2C(=O)CSC23C(=O)N(CC(=O)Nc2ccc(C(C)C)cc2)c2ccccc23)cc1C (centres undefined)	0.6%
55	CC(=O)c1ccc(S(=O)(=O)N2CCn3cccc3C2c2ccc(F)c(F)c2)cc1 (centres undefined)	-1.8%
56	O=C(NCCCN1CCN(c2ccccc2)CC1)c1ccc2nc(CCc3ccccc3)oc2c1	1.2%
57	COc1ccccc1N1CCN(C(=O)Cn2ncc3c(=O)oc4ccc(C)cc4c32)CC1	1.7%
58	O=S1(=O)CC(N2CCCCC2)CN1Cc1cn(Cc2cccc(C(F)(F)F)c2)nn1 (centres undefined)	-0.8%
59	CCN1CCN(C(=O)Cn2c(-c3cccs3)cc3ccccc32)CC1	31.6µM*
60	Cc1ccc(Cl)cc1NC(=O)Cn1c(=O)oc2cc(S(=O)(=O)N3CCCC3)ccc21	-1.9%
61	COc1ccc(N2CCN(C(=O)Cn3cnc4sc(C)c(S(=O)(=O)N5CCCCC5)c4c3=O)CC2)cc1	0.3%
62	Cc1cccc(C)c1NC(=O)C(c1ccccc1OC(F)(F)F)N1CCC(c2ccccc2)CC1 (centres undefined)	-4.4%
63	CCCOC(=O)c1c(NC(=O)C2c3ccccc3Oc3ccccc32)sc2c1CCC(C)C2 (centres undefined)	-15.3%
64	COc1ccc(OCC(=O)Nc2cccc(-c3nc4ccccc4s3)c2C)cc1	-0.2%
65	CCOc1ccccc1NC(=O)Cc1csc(COc2cccc(C)c2)n1	0.5%
66	CCOC(=O)c1cc(-c2ccc(C)cc2)n(CCC(=O)Nc2cc(Cl)ccc2C)c1C	-1.4%
67	COc1ccc([C@H]2CC(=O)C[C@@H](CCn3cc(Cc4ccccc4)nn3)O2)cc1	-0.5%
68	COC(=O)c1cc2sccc2n1Cc1ccc(F)cc1Cl	-21.5%
69	C[C@@H]1COc2cccc(N(C)CCO)c2S(=O)(=O)N1	-0.1%
70	COc1cccc(NC(=O)CSc2cc(=O)n(C)c3ccc(Cl)cc23)c1	-29.9%
71	CCN1C(C(=O)c2ccccc2)=C(NC(=O)c2ccc(Cl)cc2)c2ccccc2S1(=O)=O	-0.5%
72	CCCCNC(=O)c1nc(-c2cccnc2)oc1-c1ccc(OC(F)(F)F)cc1	5.2%
73	COc1ccc(-c2c3c(=O)n(C)c(=O)n(C)c3c3n2-c2ccccc2NC3c2ccc(OC)cc2)cc1 (centres undefined)	?
74	Cc1ccc(OCC(=O)Nc2nc(-c3ccc(Br)cc3)ns2)cc1C	0.6%
75	CCCCOC(=O)c1ccc(NC2=NS(=O)(=O)c3ccccc32)cc1	-8.7%

Molecules shown so far with a cyano group, in the order listed:
entry	mol	ClpP mod
12	CCOc1cc(C#N)c(NC(=O)c2ccc(OC)c(S(=O)(=O)N3CCN(c4ccccc4)CC3)c2)cc1OCC	-7.0%
38	COc1ccc(CCNc2oc(/C=C/c3cc(OC)c(OC)c(OC)c3)nc2C#N)cc1OC	4.2%

(next part)
entry	mol	ClpP mod
76	CC(C)(C)C(=O)OCCNc1nc(-c2cccs2)nc2ccccc12	-15.5%
77	CCC1CN(C(=O)Nc2ccccc2F)c2cc(C)ccc2O1 (centres undefined)	1.0%
78	CC(=O)Nc1ccc(S(=O)(=O)NCC2CCC(C(=O)NCCc3ccc(C)cc3)CC2)cc1 (centres undefined)	0.2%
79	CCCCn1nnnc1C1(C)CCC(=O)N1CCc1ccc(O)cc1 (centres undefined)	2.4%
80	C/C=C/c1cccc(-c2nc(C(=O)N3CCN(C)CC3)cc3c2[C@@H](CCO)N(C(=O)NC(C)C)C3)c1	2.3%
81	CCCNC(=O)Cn1c(=O)cc(C)c2c(C)nn(-c3cccc(F)c3)c21	-10.6%
82	O=C(COc1ccc(Cl)cc1)Nc1sc2c(c1C(=O)Nc1cccc(Cl)c1)CCCC2	-10.7%
83	CCc1nnc(SCc2ccc(F)cc2Cl)c2cc3sccc3n12	0.9%
84	Cc1ccccc1NC(=O)c1ccc2nc(Cc3ccccc3)oc2c1	16.3%
85	Cc1cc(-c2ccc(S(=O)(=O)Nc3cccc(C)c3C)s2)on1	1.2%
86	CCCS(=O)(=O)NCCc1csc2nc(-c3ccc(C)cc3)nn12	0.9%
87	Nc1c(C(=O)Nc2cccc(F)c2)c2ccccn2c1C(=O)c1ccccc1	2.0%
88	COc1cccc(N2CCN(c3ncnc4c3c(-c3ccccc3)cn4-c3cccc(C(F)(F)F)c3)CC2)c1	3.98µM*
89	CSc1cccc(NC(=O)Cn2nnc(C(=O)NCCc3ccccc3)c2N)c1	-0.9%
90	O=C(OCc1cc(=O)n2nc(-c3cccs3)sc2n1)c1ccccc1Cl	-3.5%
91	O=C(CSc1nc2ccsc2c(=O)n1Cc1ccccc1Cl)NCc1ccc(F)cc1	-0.6%
92	O=C(Cn1cc(C(=O)c2ccco2)c2ccccc21)Nc1ccccc1C(F)(F)F	-6.5%
93	CC(=O)N1Cc2cc(C(=O)NCC(F)(F)F)nc(-c3cccc(-c4cc5ccccc5o4)c3)c2[C@@H]1CCO	?
94	FC(F)(F)c1ccc(C2=Nc3ccccc3NC(c3cccs3)=N2)cc1	1.6%
95	CCN(CC)CCCNC(=O)c1cc(-c2ccc(OC)c(OC)c2)on1	0.2%
96	Cc1cc2oc(C(=O)Nc3ccc(S(=O)(=O)Nc4ncccn4)cc3)cc(=O)c2cc1C	-5.5%
97	O=C(c1cccn1-c1nnc(N2CCCCC2)s1)N1CCN(c2ccc(Cl)cc2)CC1	-3.7%
98	COc1ccc(NCc2cc3ccc(OC)cc3n(CC(=O)Nc3ccc(C)c(C)c3)c2=O)cc1	1.3%
99	Cc1noc(C)c1S(=O)(=O)Nc1ccc(C(=O)Nc2ccc(C(C)C)cc2)cc1	-0.9%
100	CCN1CCC(N(Cc2ccc3c(c2)OCO3)C(=O)Nc2cc(F)ccc2F)CC1	-2.1%
101	CCOc1ccc(NC(=O)N2CCC(CN3CCC(C)CC3)CC2)cc1	-2.4%
102	COc1ccc(CCNC(=O)c2nc(-c3ccc(Cl)cc3)n3c2CCCCC3)c(OC)c1	-17.6%
103	CC(=O)N1CCCc2cc(S(=O)(=O)N3CCCC(C(=O)Nc4ccc(F)cc4F)C3)ccc21 (centres undefined)	-1.0%
104	COc1ccccc1C(=O)Nc1ccc2nc(SCC(=O)N3CCCC3)sc2c1	-1.4%
105	COc1ccccc1CN(C)CC(=O)c1c(C)[nH]c2ccccc12	-18.3%
106	CCOc1ccc(NC(=O)Cn2c(=O)n(-c3ccc(C)cc3)c(=O)c3cc(OC)c(OC)cc32)cc1	-7.1%

From compound 18 up to 19, copied from above:
entry	mol	ClpP mod
18	CC(=O)N1CCc2cc(S(=O)(=O)CCC(=O)Nc3ccc(C)cc3Br)ccc21	2.2%
19	COc1ccc(CCNC(=O)c2ccc3c(c2)nc2n3CCCCC2)cc1OC	-2.3%

An excerpt; count on the stated rates, not on these rows.
